# Screening data deposited in PubChem by several laboratories.
# STK33 inh – inhibitors of purified STK33 kinase, primary screen, biochemical, ADP-Glo luminescence, homogeneous, cell-free; Serine/threonine-protein kinase 33 (Homo sapiens), Q9BYT3; MBP phosphorylation; inhibition, % at 10 µM; actives 0.073% (n = 320,000);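 active = inhibition at or above 25%, using the most active replicate where run in duplicate; inactive = inhibition below 25%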
# Target sequence (Q9BYT3 whole entry, looked up): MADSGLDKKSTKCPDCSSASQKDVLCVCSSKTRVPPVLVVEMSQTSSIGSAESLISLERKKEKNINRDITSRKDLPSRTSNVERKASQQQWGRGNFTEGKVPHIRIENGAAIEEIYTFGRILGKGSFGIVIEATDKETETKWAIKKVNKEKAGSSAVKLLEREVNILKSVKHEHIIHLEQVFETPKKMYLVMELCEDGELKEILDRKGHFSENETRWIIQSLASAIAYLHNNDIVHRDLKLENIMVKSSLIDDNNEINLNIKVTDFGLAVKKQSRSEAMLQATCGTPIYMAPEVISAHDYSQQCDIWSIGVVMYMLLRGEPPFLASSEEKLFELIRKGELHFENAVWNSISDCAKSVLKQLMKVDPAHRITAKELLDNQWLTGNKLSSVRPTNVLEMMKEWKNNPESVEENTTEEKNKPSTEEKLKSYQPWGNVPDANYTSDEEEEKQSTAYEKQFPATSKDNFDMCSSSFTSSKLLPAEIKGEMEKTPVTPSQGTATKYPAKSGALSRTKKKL
# OX1R FRET antag – antagonists of human orexin 1 receptor (OX1R); Orexin/Hypocretin receptor type 1 (Homo sapiens), O43613; OX1R-expressing cells, FRET antagonist read-out; inhibition, % at 6.6 µM; actives 1.8% (n = 330,000); in the data active = inhibition mostly above about 38%, no sharp cut-off; inactive = mostly below about 40%;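 note: 0% = agonist challenge alone and 100% = reference antagonist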
# Target sequence (O43613 whole entry, looked up): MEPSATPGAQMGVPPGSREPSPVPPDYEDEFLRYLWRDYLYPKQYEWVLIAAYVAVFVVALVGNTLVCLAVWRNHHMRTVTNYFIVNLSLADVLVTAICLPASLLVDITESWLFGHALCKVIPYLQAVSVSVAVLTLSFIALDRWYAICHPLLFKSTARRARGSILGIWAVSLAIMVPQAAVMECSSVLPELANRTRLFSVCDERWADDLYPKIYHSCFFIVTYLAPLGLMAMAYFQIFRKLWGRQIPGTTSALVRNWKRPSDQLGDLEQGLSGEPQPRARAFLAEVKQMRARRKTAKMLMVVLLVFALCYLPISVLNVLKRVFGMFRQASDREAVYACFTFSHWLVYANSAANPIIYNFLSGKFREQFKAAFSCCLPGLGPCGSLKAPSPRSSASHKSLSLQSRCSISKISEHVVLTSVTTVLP
# * hit, by the source's call; · = no result given. Not all compounds are listed; most or all hits stand in other tables.
# Sample of the layout, 17 compounds:
SMILES,STK33 inh,OX1R FRET antag
O=C(NCCCc1ccccc1)C(=O)c1c[nH]c2ccccc12,-0.9,27
O=C(CN1C(=O)C2CC=C(Cl)CC2C1=O)NCc1ccccc1 (stereo not given),-0.6,10
c1ccc(-n2ncc(-c3nn[nH]n3)n2)cc1,-0.4,7
Cc1ccc(NC(=O)CCCNC(=O)c2ccc(Cl)cc2)nc1,-4.1,17
COc1cccc(NC(=O)CSc2nnc(NC(=O)C3CC3)s2)c1,-0.5,9
CCN(CC(=O)Nc1ccc(N2CCOCC2)cc1)C(=O)c1ccc(C(F)(F)F)cc1,0.2,4
CC(OC(=O)CCCN1C(=O)c2ccccc2C1=O)C(=O)Nc1ncc(Cl)cc1Cl (stereo not given),-1.0,15
CCNC(=S)NNC(=O)c1cc(-c2cccc(C)c2)nc2ccccc12,1.3,11
Cc1ccsc1/C=N\NC(=O)c1cc(C(C)(C)C)[nH]n1,0.8,5
O=C(O)CN(c1ccccc1[N+](=O)[O-])S(=O)(=O)c1ccccc1,-0.9,5
Cc1cn(-c2ccccc2)c(C)c1/C=N\Nc1nc(N2CCOCC2)nc(N2CCOCC2)n1,-1.3,4
O=C(NCc1cccnc1)C1c2ccccc2C(=O)N1C1CCCCCC1 (stereo not given),-0.4,11
Fc1ccc(NC(=S)N2CCc3[nH]c4ccccc4c3C2)cc1,-0.6,3
CCOc1cc(CNCCO)c(Cl)cc1OCC(=O)NCCc1ccccc1,0.8,9
CSCC(=O)N1CCC(n2nccc2NC(=O)CCc2ccccc2)CC1,-1.9,-1
CCCNC(=O)Nc1ccc(C(F)(F)F)cc1,-1.3,10
Cc1ccc(C(C(=O)NC(C)(C)C)N(Cc2cccs2)C(=O)c2csnn2)cc1 (stereo not given),0.0,4

# Results, from the start:
SMILES,STK33 inh,OX1R FRET antag
O=C(NCCCc1ccccc1)C(=O)c1c[nH]c2ccccc12,-0.9,27
O=C(CN1C(=O)C2CC=C(Cl)CC2C1=O)NCc1ccccc1 (stereo not given),-0.6,10
c1ccc(-n2ncc(-c3nn[nH]n3)n2)cc1,-0.4,7
Cc1ccc(NC(=O)CCCNC(=O)c2ccc(Cl)cc2)nc1,-4.1,17
COc1cccc(NC(=O)CSc2nnc(NC(=O)C3CC3)s2)c1,-0.5,9
CCN(CC(=O)Nc1ccc(N2CCOCC2)cc1)C(=O)c1ccc(C(F)(F)F)cc1,0.2,4
CC(OC(=O)CCCN1C(=O)c2ccccc2C1=O)C(=O)Nc1ncc(Cl)cc1Cl (stereo not given),-1.0,15
CCNC(=S)NNC(=O)c1cc(-c2cccc(C)c2)nc2ccccc12,1.3,11
Cc1ccsc1/C=N\NC(=O)c1cc(C(C)(C)C)[nH]n1,0.8,5
O=C(O)CN(c1ccccc1[N+](=O)[O-])S(=O)(=O)c1ccccc1,-0.9,5
Cc1cn(-c2ccccc2)c(C)c1/C=N\Nc1nc(N2CCOCC2)nc(N2CCOCC2)n1,-1.3,4
O=C(NCc1cccnc1)C1c2ccccc2C(=O)N1C1CCCCCC1 (stereo not given),-0.4,11
Fc1ccc(NC(=S)N2CCc3[nH]c4ccccc4c3C2)cc1,-0.6,3
CCOc1cc(CNCCO)c(Cl)cc1OCC(=O)NCCc1ccccc1,0.8,9
CSCC(=O)N1CCC(n2nccc2NC(=O)CCc2ccccc2)CC1,-1.9,-1
CCCNC(=O)Nc1ccc(C(F)(F)F)cc1,-1.3,10
Cc1ccc(C(C(=O)NC(C)(C)C)N(Cc2cccs2)C(=O)c2csnn2)cc1 (stereo not given),0.0,4
CC(Oc1ccc2oc3ccccc3c2c1)C(=O)NC12CC3CC(CC(C3)C1)C2 (stereo not given),-0.8,-1
COc1cccc(NC(=O)Cn2c(=O)n(-c3ccccc3)c(=O)c3oc4ccccc4c32)c1,-0.8,2
Cc1cccc(C)c1NC(=O)CSCC(=O)c1ccc(O)c(O)c1,-0.5,16
COC(=O)C1=C(C)NC(C)=C(C(=O)OC)C1c1ccc(N(C)C)cc1,1.3,13
C=CCn1c(SCc2c(C)noc2C)nnc1C1COc2ccccc2O1 (stereo not given),-1.1,12
COc1ccc(NC(=O)CCS(=O)(=O)c2ccccc2)c(OC)c1,-1.4,6
O/N=C/c1ccc2ccccc2c1,-1.7,26
COc1ccc(C2C3=C(CC(C)(C)CC3=O)Nc3cc4c(cc32)OCO4)cc1 (stereo not given),-0.5,7
CC1CC(NC(=O)c2ncn[nH]2)CC(C)(C)C1 (stereo not given),-1.2,8
CCCOP(=O)(c1ccc(N(C)C)cc1)C(O)c1ccccc1OC (stereo not given),1.7,14
Cc1ccc(SCCOCCN2CCOCC2)cc1,-1.8,-4
COc1ccc(CNC(=O)Cn2cncn2)cc1OC,·,17
C=CCOCC(O)Cn1c(N2CCCC2)nc2c1c(=O)n(C)c(=O)n2C (stereo not given),-9.8,·
CCNC(=O)c1c(C)nc2ccccn12,-1.6,8
COc1ccc(Cl)c2sc(N(CCN(C)C)C(=O)c3ccc4c(c3)OCCO4)nc12,-0.7,7
CNC(=O)C(NC(=O)c1ccccc1)=C(C)C,-0.3,1
Cc1ccc(S(=O)(=O)N2CCC(C(=O)N[C@H](C(=O)NCC3CCCO3)C(C)C)CC2)cc1 (stereo not given in full),4.9,13
CC(C)C(O)(C(=O)NNc1ccccc1)C(C)C,-1.9,8
Cc1ccc(C)c(S(=O)(=O)N2CCN(CC(=O)Nc3sccc3C#N)CC2)c1,-0.4,16
COc1ccc(CNc2nc3ccccc3n2Cc2ccccc2)cc1OC,-1.8,10
COc1ccc(N(C)S(=O)(=O)c2c(C)[nH]c(=O)[nH]c2=O)c(OC)c1,-4.2,4
CN1CCN(C(=O)CN(c2cc(C(F)(F)F)ccc2Cl)S(C)(=O)=O)CC1,-0.8,8
CC(OC(=O)c1ccc2ccccc2n1)C(=O)Nc1ccc(N2CCOCC2)cc1 (stereo not given),-0.8,26
Oc1cccc(-c2nc3ccc4ccccc4c3c3c2CCC3)c1,0.8,14
Cc1cc(C)cc(NC(=O)CSc2nnc(C3CC3)n2CC2CCCO2)c1 (stereo not given),-1.0,28
COCCN=c1scc(C)n1/N=C/C1CC2C=CC1C2 (stereo not given),-0.4,18
O=C(c1ccco1)N1CCN(Cc2cc(=O)c(OCc3ccc(F)cc3)co2)CC1,-1.6,5
Cn1cc(CN2CCCCC2c2ccccn2)c(-c2ccc3c(c2)OCCO3)n1 (stereo not given),-2.0,15
Cc1cccc(-n2c(SCc3cc(=O)n4ccsc4n3)nc3ccccc3c2=O)c1,1.2,17
CCOC(=O)C1=C(C(F)(F)F)Nc2ncnn2C1c1ccc(OC)c(OC)c1OC (stereo not given),-0.5,19
Cc1ccc(-c2cc(C(=O)N3CC(C)CC(C)C3)c3ccccc3n2)o1 (stereo not given),-0.2,17
Cc1ccc(CNC(=O)C(c2ccccc2)c2ccccc2)cc1,1.2,12
Cc1ccc2nc(C3CCN(C(=O)NCc4ccccc4)CC3)[nH]c2c1,-0.1,-8
# Other results follow:
SMILES,STK33 inh,OX1R FRET antag
Nn1c(Cc2ccccc2)nc2sc3c(c2c1=O)CCC3,1.0,2
CNC(=S)NNC(=O)c1cccc(C(F)(F)F)c1,-0.5,6
O=C(Nc1sc2c(c1C(=O)O)CCCCC2)c1ccco1,0.5,15
Cc1ccc(C)c(/C=N/Nc2nc3ccccc3c(=O)n2O)c1,0.1,8
CCOC(=O)Cn1cnc2scc(-c3ccccc3)c2c1=O,-1.6,5
Cc1nc(N2CCC(C)CC2)c(C#N)c(C)c1[N+](=O)[O-],-2.4,11
Cc1cc(SCC(=O)N/N=C/c2ccco2)nc2ccccc12,1.7,27
Cc1cc(C)c(C(=O)N(C)C2CCCN(Cc3ccccc3F)C2)o1 (stereo not given),-0.4,15
Cc1cc(CSc2ccccc2)ccc1NC(=O)COc1ccccc1C,-0.6,12
O=C(CCCn1cncn1)N1CCCC(Nc2ccc(F)cc2)C1 (stereo not given),0.3,·
CC1=NN(C(=O)c2ccc(Cn3cc([N+](=O)[O-])cn3)cc2)C(O)(C(F)(F)F)C1 (stereo not given),-0.4,14
COc1ccc(CNC(=O)CN(c2cc(C)cc(C)c2)S(=O)(=O)c2c(C)[nH]c(=O)[nH]c2=O)cc1,-0.9,-4
COC(=O)c1ccc(CSc2nc(C)nc3sc(C)c(C)c23)o1,-0.2,17
COC(=O)c1cn(NC(=O)c2ccc(OC)c(OC)c2)c(=O)c2ccccc12,-0.3,18
CCc1ccccc1NC(=O)NNC(=O)CCc1ccc(OC)cc1,-0.2,·
Cn1c(=O)c2c(nc(N/N=C/c3cccnc3)n2Cc2ccccc2)n(C)c1=O,1.0,12
O=S(=O)(c1ccccc1)c1nc(-c2ccco2)oc1NCCN1CCOCC1,-2.1,4
CC(=O)Nc1ccc(N2CCN(Cc3ccccc3)CC2)cc1,0.5,-7
COc1ccc(-n2c(C)nn(C)c2=O)c(OC)c1,0.1,0
COc1ccccc1NC(=O)Nc1ccnn1C1CCN(C(=O)c2ccccn2)CC1,0.2,22
Nc1cc(C(=O)O)ccc1Sc1ccccc1C(=O)O,-0.1,23
O=C(NC1(C(F)(F)F)N=C(c2ccccc2)NC1=O)c1ccccc1F (stereo not given),-0.8,8
CCOC(=O)c1c(C)[nH]c(C(=O)OCC(=O)NC(C)C)c1C,-0.7,14
CN(c1ccccc1)S(=O)(=O)c1ccc(NC(=S)NC(=O)C2CC2)cc1,-0.2,22
CC(C)N1C(=O)c2ccccc2C1C(=O)NC1CCCCCC1 (stereo not given),2.2,-2
COc1cc(C(=O)Oc2cccc(C=O)c2)cc(OC)c1OC,-1.8,3
COC(=O)c1ccc(Nc2c([N+](=O)[O-])ccc3nonc23)cc1,-0.8,-7
COc1ccc(Nc2nc(N)nc(CSC(=S)N3CCCCC3C)n2)cc1 (stereo not given),-0.7,11
CCOC(=O)C1=C(C)NC2=C(C(=O)CC(C)(C)C2)C1c1ccsc1 (stereo not given),-0.7,28
CCOC(=O)C1(Cc2ccc(OC)cc2)CCN(C(=O)CN2CCCCC2=O)CC1,-1.5,33
COc1cc2cc(C(=O)N/N=C/c3cccc(OC)c3OC)[nH]c2cc1OC,0.3,·
O=C1NC(=O)C2(COC(c3cccc([N+](=O)[O-])c3)OC2)S1 (stereo not given),-0.1,11
CC(=O)OCC(=O)Nc1ccc(Br)c(C)c1,-2.2,7
O=C(CN1C(=O)c2ccccc2C1=O)NN1C(=O)c2ccccc2C1=O,0.6,12
Cc1c(NC(=O)Nc2cccc(C(F)(F)F)c2)c(=O)n(-c2ccccc2)n1C,1.8,35
COc1ccc(C(C)=O)cc1COC(=O)Cc1cc(OC)c(OC)c(OC)c1,-1.3,21
O=C(NC1CC1)C1CCN(c2ncnc3c2sc2cccc(F)c23)CC1,-0.9,68*
CC(NC(=O)NC(=O)c1ccc(Cl)cc1Cl)C1CC1 (stereo not given),-1.5,13
C=CCn1c(-c2cccc(S(=O)(=O)N(CC)CC)c2)n[nH]c1=S,1.2,12
COc1ccc(NC(=O)CCn2nnc(-c3ccc(C)cc3)n2)cc1OC,2.2,10
CCC(C)(C)NC(=O)C(c1ccco1)N(C(=O)CNC(=O)c1cccs1)c1cccnc1 (stereo not given),-1.5,30
COC(=O)CNC(c1ccccc1)c1cc(C)ccc1NC(=O)c1cccc(Cl)c1 (stereo not given),-1.0,16
CCOc1cc(/C=N/NC(=O)COc2ccc(Cl)cc2)ccc1OS(=O)(=O)c1ccccc1,-0.7,11
CCOC(=O)C1CCN(C(=O)CN2C(=O)c3ccccc3S2(=O)=O)CC1,·,19
O=C(c1cc(COc2cccc(C(F)(F)F)c2)on1)N1C[C@@H]2CCC[C@H]1C2,-1.5,31
CC(/C=N/NC(=O)c1cc(C(C)C)[nH]n1)=C\c1ccccc1,0.8,3
CCCCNC(=O)c1cc2cc(CC)ccc2[nH]1,0.7,16
Cc1cccc(N(CC(=O)NC2CCCC2)C(=O)c2csnn2)c1C,-2.1,9
CCCCNC(=O)/C=C/c1ccc(S(=O)(=O)Nc2ccc(OC)cc2)cc1,2.2,8
N#CC1=C(N)NC(=S)C(C(N)=O)C1c1ccc(Cl)cc1Cl (stereo not given),0.3,7
# Later entries:
SMILES,STK33 inh,OX1R FRET antag
CCCCN(C)CCNC(=O)C(NC(=O)C1CCC(C)CC1)C(C)C (stereo not given),1.2,-1
CCC(C)N(C(=O)COc1ccc(Br)cc1C=O)C1CCS(=O)(=O)C1 (stereo not given),0.0,12
CC(=O)c1ccc(OCc2cc(C(=O)NCCN3CCCC(O)C3)no2)cc1 (stereo not given),0.4,13
CCOc1ccccc1C1CC(=O)Nc2cc(OC)c(OC)cc21 (stereo not given),-1.0,·
CC(C)C(C(=O)N1CCN(Cc2ccccc2)CC1)c1ccccc1 (stereo not given),-0.7,7
Cc1nnc(NC(=O)c2ccc(S(=O)(=O)N3CC(C)CC(C)C3)cc2)o1 (stereo not given),-2.4,-16
Cc1nnc(-c2ccco2)c2cn(-c3cccc(Br)c3)nc12,·,22
O=C(COc1ccc(-c2ccccc2)cc1)NNC(=O)Nc1ccc(F)cc1F,-0.8,13
COc1ccc(NC(NC(=O)c2ccc(OC)cc2)C(Cl)(Cl)Cl)cc1 (stereo not given),-2.7,23
Cc1cccn2c(CN3CCNC(=O)CC3)c(C(=O)N(C)CCc3ccccc3)nc12,-1.6,-1
CCc1nnc(NS(=O)(=O)c2ccc(NC(=S)NC(=O)/C=C/c3ccc([N+](=O)[O-])cc3)cc2)s1,-0.8,7
Cc1ccc(C(=O)OCC(=O)NNC(=O)c2cccs2)c(O)c1,-1.0,5
Cc1ccc(-c2csc(C3=C(O)CN(NC(=O)c4ccc([N+](=O)[O-])cc4)C3=N)n2)cc1,-0.2,8
O=C(NC1CCCC1)c1cc(S(=O)(=O)N2CCCC2)ccc1Cl,2.4,32
COc1cc(NC(=O)C(C)Oc2ccccc2)cc(OC)c1 (stereo not given),0.3,13
CC(C)/C=C1\CC/C(=C\c2cccnc2)C1=O,0.0,18
N#Cc1ccsc1NC(=O)CCc1ccccc1,0.1,10
O=C(N1CCCC1)C12CC3CC(CC(C3)C1)C2,-2.4,14
